Assay outcomes: PubChem, National Center for Advancing Translational Sciences (NCATS)
VDR inh = Inhibitors of the vitamin D receptor (VDR): qHTS; VDR-SRC2-3 peptide fluorescence polarization, 2 h; Potency, µM, inactives show max response, negative = inhibition, hits mostly inhibitors; Vitamin D3 receptor (Homo sapiens), P11473; hit rate 0.93% among 400,000; active = well fitted inhibition curve with a large enough effect; inconclusive = small, poorly fitted or top-dose-only effect, or another doubt; inactive = no such curve, though single readings can be large or run the other way; also: series mostly up to about 120 µM
Target sequence (P11473 whole entry, looked up): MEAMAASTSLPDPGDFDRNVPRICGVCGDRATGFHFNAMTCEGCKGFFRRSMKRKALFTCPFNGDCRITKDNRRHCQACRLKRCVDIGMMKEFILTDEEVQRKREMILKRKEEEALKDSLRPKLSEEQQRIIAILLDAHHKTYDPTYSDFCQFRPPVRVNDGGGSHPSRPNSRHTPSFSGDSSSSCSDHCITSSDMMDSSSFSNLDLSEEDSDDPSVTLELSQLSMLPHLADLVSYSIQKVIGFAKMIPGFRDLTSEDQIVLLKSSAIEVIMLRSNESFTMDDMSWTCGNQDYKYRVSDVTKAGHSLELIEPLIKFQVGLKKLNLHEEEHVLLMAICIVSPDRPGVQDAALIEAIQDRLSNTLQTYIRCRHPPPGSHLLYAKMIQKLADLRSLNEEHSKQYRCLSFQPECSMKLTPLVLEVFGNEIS
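The screen uses fluorescence polarization to detect compounds that interfere with recruitment of the SRC2-3 coactivator peptide to VDR; plates are read after 2 h at room temperature.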
An asterisk follows results filed as active; ? = inconclusive; & = joins results of further samples. % is scaled to controls: 0 for no effect and ±100 for the full control effect; potency is read from the fitted curve at half-maximal effect. The list is partial; count on the stated rates, not on these rows.

SMILES	VDR inh
CCOC(=O)c1c(NC(=O)c2ccccc2N(C)S(=O)(=O)c2ccccc2)sc2c1CCCC2	-2%
CSc1ccc(/C=C(\C(=O)O)c2ccc(S(=O)(=O)N3CCCC3)s2)cc1	-12%
CCOCCc1nn2c(=O)cc(CSCC(=O)Nc3ccc(OC)cc3)nc2s1	-14%
Cc1ccc(OCC(=O)Nc2ccccc2C(=O)NC2CC2)cc1C	6%
O=C(COC(=O)CNS(=O)(=O)c1ccc2ccccc2c1)Nc1ccccc1Sc1ccccc1	-10%
CC(=O)c1ccc(NC(=O)Nc2ccc3c(c2)N(C)C(=O)CS3)cc1	-17%
CCc1nn2c(=O)c(S(=O)(=O)Nc3ccccc3)c(C)nc2s1	-6%
CC1=C(C(=O)OCc2ccccc2)C(c2cccnc2)n2ncnc2N1 (centres undefined)	11%
CC(C)C(NC(=O)C1CCCCC1)C(=O)Nc1ccc2c(c1)OCCO2 (centres undefined)	-9%
CC(C)N(CCO)C(=O)CCc1nnc(CCCc2ccccc2)o1	-14%
Cc1ccnc2nc(C(=O)Nc3ccc(S(=O)(=O)N4CCCC4)cc3)nn12	3%
COc1cccc(-c2sc3ccccc3c2-c2ccc(OCCN3CCCC3)cc2)c1	-11%
O=S(=O)(c1ccc(Cl)cc1Br)N1CCCCC1	2%
Cc1ccc(N2C(=O)C3ON(c4ccccc4)C(c4ccncc4)C3C2=O)cc1 (centres undefined)	-2%
COc1cc(OC)cc(-c2c(C#Cc3ccsc3)c3cc(-c4ccc(SC)cc4)ccc3n2C)c1	9%
COc1ccc(CCNC(=O)C(=O)NCC2OCCN2S(=O)(=O)c2ccc(Br)cc2)cc1 (centres undefined)	6%
Cc1ccc(S(=O)(=O)NCC(=O)OCC(=O)NCc2cccs2)cc1	-8%
CCOC(=O)N1CCN(S(=O)(=O)c2c(C)nc3scc(C)n3c2=O)CC1	-16%
Cc1sc2c(c1C)c(=O)n(Cc1ccccc1)c(=O)n2CC(=O)N(C)c1ccccc1	-10%
CC(=O)Nc1ccc(S(=O)(=O)NCCc2cn3ccsc3n2)cc1	12%
CCOc1ccc(N=C(C)c2ccccc2O)cc1	8%
O=C(CN1CCCC1)N1c2ccccc2Sc2ccccc21	-10%
Cc1sc(N)nc1-c1c(C)n(C)c2ccccc12	-5%
COc1ccc(NC(C)=O)cc1S(=O)(=O)NC(C)c1ccc(-n2ccnc2)cc1 (centres undefined)	-6%
COc1cc(CN2CCc3nc(N4CCN(c5ccccc5F)CC4)ncc3C2)ccc1OC(C)C	-3%
COc1ccc(-c2sc3cc(OC)ccc3c2-c2ccc(OCCN3CCOCC3)cc2)cc1	3%
CN(C)CCCN(C(=O)c1ccc(S(=O)(=O)N(C)Cc2ccccc2)cc1)c1nc2c(F)cccc2s1	-11%
COc1ccccc1-n1c(SCC(=O)N(C)C)nnc1-c1ccco1	23%
S=c1[nH]nc(-c2cc(-c3ccccc3)n[nH]2)n1/N=C/c1ccc(Br)s1	2%
O=c1c2ccccc2ncn1Cc1ccco1	-6%
Cc1c(C)c2ccc(OCC(=O)Nc3ccc(CN4CCOCC4)cc3)cc2oc1=O	12%
COc1ccc(CCN2CC34C=CC(O3)C(C(=O)NCc3ccccc3Cl)C4C2=O)cc1OC (centres undefined)	5%
CC1CCN(C(=O)C(C)Sc2nc(-c3ccccc3)cc(C(F)(F)F)n2)CC1 (centres undefined)	-1%&-13%
COc1cccc(Cn2c(CNS(=O)(=O)c3ccc4c(c3)CCCC4)nc3cccnc32)c1	-6%
CN(C)S(=O)(=O)c1ccc(NC(=O)CSc2nnc(-c3ccco3)o2)cc1	-5%
COc1cc(NC(=O)CCCc2nnc3n(CC(C)C)c(=O)c4sccc4n23)cc(OC)c1	9%
COc1ccc2sc(N(CCCN(C)C)C(=O)c3ccc(C(=O)c4ccccc4)cc3)nc2c1	1%
CCCc1cc(=O)oc2cc(C)cc(OCc3nn[nH]n3)c12	4%
Cc1cc(C)c(NS(=O)(=O)c2c(C(=O)N3CCOCC3)c(C)n(C)c2C)c(C)c1	-6%
COc1ccc(S(=O)(=O)NC2CCCCC2)cc1F	3%

Part of the list above, as labelled records:
CN(C)S(=O)(=O)c1ccc(NC(=O)CSc2nnc(-c3ccco3)o2)cc1
  VDR inh = -5%
COc1cc(NC(=O)CCCc2nnc3n(CC(C)C)c(=O)c4sccc4n23)cc(OC)c1
  VDR inh = 9%
COc1ccc2sc(N(CCCN(C)C)C(=O)c3ccc(C(=O)c4ccccc4)cc3)nc2c1
  VDR inh = 1%
CCCc1cc(=O)oc2cc(C)cc(OCc3nn[nH]n3)c12
  VDR inh = 4%

(further entries)
SMILES	VDR inh
O=C(COC(=O)c1ccccc1N1C(=O)C2C3CCC(C3)C2C1=O)c1ccccc1 (centres undefined)	21%
CCOc1ncccc1-c1nc(-c2cccs2)no1	10%
CCN(CC)c1ccc(C2C3CCCCC3(O)CCN2CC(=O)N2CCCCC2)cc1 (centres undefined)	10%
CCOC(=O)C1=C(O)/C(=C/c2ccc(OCC(=O)O)c(OCC)c2)SC1=Nc1ccc(OC)cc1	?
CCc1nnc(NC(=O)CSc2nnc(-c3cccnc3)n2C)s1	7%
CCOc1ccccc1OCCCC(=O)N1CCN(S(=O)(=O)c2ccc(C)cc2)CC1	-1%
CC(C)C(=O)c1cn(CC(=O)N2CCCc3ccccc32)c2ccccc12	0%
NC(=O)c1ccsc1NC(=O)COC(=O)COc1ccccc1F	-10%
Cc1cc(Nc2nc3ccccc3[nH]c2=O)n(-c2ccccc2)n1	7%
O=C(Nc1ccccc1)C12CC3CC(C1)CC(n1cnc([N+](=O)[O-])n1)(C3)C2	16%
O=C(NC(Nc1nc2ccccc2s1)(C(F)(F)F)C(F)(F)F)c1ccccc1	4%
COc1ccccc1NS(=O)(=O)c1cc(NC(=O)CCNC(C)=O)ccc1C	15%
Cc1onc(-c2ccccc2)c1CNS(=O)(=O)c1cccc(Br)c1	1%
CC1CN(C(=O)c2ccc(S(=O)(=O)Nc3cccc(C(F)(F)F)c3)cc2)CC(C)O1 (centres undefined)	-3%
CCOc1ccc(OCCCCn2cnc3ccccc3c2=O)cc1	26%
O=CN1CCc2scc[n+]2-c2ccccc21	?
CSc1ccc(CNC(=O)C2CCN(c3nnc(-n4cccc4CNc4ccc(C)cc4)s3)CC2)cc1	-7%
Cc1ccc(NC(=O)CS(=O)CC(=O)NC(C)CCc2ccco2)cc1Cl (centres undefined)	4%
Cc1ccc(CNC(=S)NCc2ccncc2)cc1	-18%
COc1ccc(OC)c(-c2cc(C(=O)N3CCCc4ccccc43)no2)c1	30%

Ordered by molecular weight (smallest number first): some entries from above.
SMILES	VDR inh
O=CN1CCc2scc[n+]2-c2ccccc21	?
CCOc1ccc(OCCCCn2cnc3ccccc3c2=O)cc1	26%
COc1ccccc1NS(=O)(=O)c1cc(NC(=O)CCNC(C)=O)ccc1C	15%
CC1CN(C(=O)c2ccc(S(=O)(=O)Nc3cccc(C(F)(F)F)c3)cc2)CC(C)O1 (centres undefined)	-3%
CSc1ccc(CNC(=O)C2CCN(c3nnc(-n4cccc4CNc4ccc(C)cc4)s3)CC2)cc1	-7%

(cont.)
SMILES	VDR inh
O=C(O)CCN1CCc2ccccc2C1c1ccncc1 (centres undefined)	1%
CC(C)c1ccc(NC(=O)C2CCN(C(=O)[C@@H]3Cc4ccccc4CN3)CC2)cc1	7%
C=CCc1ccccc1Oc1cc(F)nc(N)n1	-6%
O=C(CN1CCCCC1)N/N=C/c1ccccc1OCc1ccccc1	8%
CC1CN(C)C(C)C/C1=N\Oc1ccc([N+](=O)[O-])cc1 (centres undefined)	20%
COc1ccc(CN(C)C(=O)c2cccc(NC(=O)CC3SC(N4CCCCC4)=NC3=O)c2)c(OC)c1 (centres undefined)	-2%
CC(C)c1ccc(NC2CCCN(C(=O)c3ccoc3)C2)cc1 (centres undefined)	-11%
CCN(CC(=O)NCc1ccc(F)cc1)C(=O)C1CCN(S(=O)(=O)c2ccc(C(C)C)cc2)CC1	4%
COc1ccc(CN2CCN(Cc3cc(=O)oc4cc(C)ccc34)CC2)c(OC)c1OC	8%&7%
COC(=O)Cc1cc(=O)[nH]c(/N=C(\N)Nc2cccc(C)c2)n1	-11%
COc1cc(C#N)c(NS(=O)(=O)c2ccc3[nH]c(=O)sc3c2)cc1OC	-9%
CCc1cc(C)c(O)c(CC)n1	10%
CCC(=O)N1CCN(c2ccc(NC(=O)COc3cccc(C)c3C)cc2)CC1	9%
Cc1ccc(CN(C)C(=O)c2ccccc2NC(=O)c2ccccc2)o1	11%
O=C(COC(=O)C1CCN(S(=O)(=O)c2ccc3c(c2)OCCO3)CC1)Nc1ccccc1OC(F)F	28%
O=C(Cc1ccc(S(=O)(=O)N2CCOCC2)s1)NCCOc1ccccc1	11%
COc1cc(/C=N/O)ccc1OCc1ccccc1Cl	9%
Cc1nn(C2CCS(=O)(=O)C2)c2nc(C3CC3)cc(C(=O)Nc3cccc(C#N)c3)c12 (centres undefined)	1%
CCOc1ccc(NS(=O)(=O)c2cc3c(cc2Cl)NC(=O)CO3)cc1	2%
N#CCCN(C(=O)COC(=O)CNS(=O)(=O)c1ccc2ccccc2c1)c1ccccc1	-5%
Cc1ccc(C(=O)NC(=S)Nc2ccc3[nH]c(=O)[nH]c3c2)cc1C	-12%
CC(=O)Nc1cccc(NC(=O)CN2c3cccc4cccc(c34)S2(=O)=O)c1	-2%
C[C@@H](C(=O)Nc1ccc(OC(F)F)c(Cl)c1)N1C(=O)C2CC=CCC2C1=O (some centres undefined)	-10%
CCCN1CCN(CCCNC(=O)Cn2nc(C)n3c(cc4c(OC)cccc43)c2=O)CC1	4%
CCOc1cc(/C=N/NC(=O)C2CCCC2)ccc1OC(C)C	10%
Cc1nc2nc(C)c(NS(=O)(=O)c3ccc(C(C)(C)C)cc3)c(=O)n2[nH]1	-16%
COc1cccc(CN2C(=O)C3(SCC(=O)N3c3cc(C)cc(C)c3)c3ccccc32)c1 (centres undefined)	2%
COc1ccccc1CCC(=O)N(Cc1ccccc1)c1c(N)n(Cc2ccccc2)c(=O)[nH]c1=O	-12%
CC(=Nc1ccccc1)c1sc2ccccc2c1O	-3%
CCS(=O)(=O)Nc1cccc(C2=NN(S(=O)(=O)CC)C(c3ccccc3)C2)c1 (centres undefined)	2%

Taken from above.
Entry for `COc1ccccc1-n1c(SCC(=O)N(C)C)nnc1-c1ccco1` in VDR inh: 23%
Entry for `CCc1nnc(NC(=O)CSc2nnc(-c3cccnc3)n2C)s1` in VDR inh: 7%
Entry for `CC(=Nc1ccccc1)c1sc2ccccc2c1O` in VDR inh: -3%

New compounds follow:
SMILES	VDR inh
CC(C)C(NC(=O)c1ccccc1NC(=O)c1ccco1)C(=O)NNC(=O)c1ccncc1 (centres undefined)	-15%
CCCn1c(NC(=O)CCS(=O)(=O)c2ccc(C)cc2)nc2ccccc21	-11%
CCN(CC)C(=O)CNC(=O)c1nn(-c2ccc(OC)c(Cl)c2)c(=O)c2ccccc12	-8%
CCOc1ccccc1OCCCC(=O)OCC(=O)Nc1cccc(Cl)c1	4%
O=C(O)c1ccccc1C(=O)Nc1nc(-c2ccccc2)cs1	-4%
O=C(NC1CCCC1)c1ccc(CS(=O)Cc2ccc(Cl)cc2)o1 (centres undefined)	0%
CC(C)(C)NC(=O)CC1C(=O)NCCN1Cc1c(F)cccc1Cl (centres undefined)	6%
Cn1cc(CNCCCn2ncc3ccccc32)c(-c2ccccc2F)n1	0%
CCOC(=O)c1ccc(NC(=O)CNC(=O)C2CCCCC2)cc1	3%
CC(Oc1cccc(Cl)c1)C(=O)Nc1ccccc1C(=O)N1CCCCC1 (centres undefined)	-1%
CCOc1cccc2sc(NC(=O)c3ccc(S(=O)(=O)N4CCCc5ccccc54)cc3)nc12	-2%
CCOC(=O)C(Cc1ccc(OC)c([N+](=O)[O-])c1)NC(=O)CCC(=O)Nc1ccc(C)cc1 (centres undefined)	-10%
COc1ccc(NC2CCCCC2NS(=O)(=O)c2ccc(C)cc2)cc1 (centres undefined)	6%
Cc1ccc(S(=O)(=O)N2CCC(c3ccncc3)CC2)c(C)c1	1%
c1ccc(-c2ccc(-c3cnc4n3CCCCC4)cc2)cc1	21%
Cc1c(CCC(=O)N[C@@H](C)C(=O)O)c(=O)oc2cc3occ(-c4ccccc4)c3cc12	-7%
Cc1cc(NC(=O)c2sc(Nc3cccc(C(F)(F)F)c3)nc2N)no1	-3%
Cn1c(=O)c2ccccc2n(Cc2ccccc2Cl)c1=O	-19%
Nn1cc(-c2ccccc2)nc1SCC(=O)Nc1ccc(S(N)(=O)=O)cc1	-22%
CCN(CC)C(=O)C12C(=O)Oc3ccccc3C1C2(C)C(=O)c1ccc(F)cc1 (centres undefined)	-15%

Two records picked at random from those above:
SMILES	VDR inh
CCOc1cccc2sc(NC(=O)c3ccc(S(=O)(=O)N4CCCc5ccccc54)cc3)nc12	-2%
c1ccc(-c2ccc(-c3cnc4n3CCCCC4)cc2)cc1	21%

Following part
SMILES	VDR inh
CCn1cc(C(=O)NCC(=O)NC(C)(C)CO)c(=O)c2cc3c(cc21)OCO3	3%
O=S(=O)(c1ccc(=S)[nH]c1)N1CCN(Cc2ccccc2)CC1	79µM*
Cn1cc(-c2nc3cncnc3n(-c3ccccc3)c2=O)c2ccccc21	-10%
CC(NC(=O)C12CC3CC(CC(C3)C1)C2)C(=O)N/N=C/C1=C(N2CCOCC2)C(=C\c2ccccc2)/CC1 (centres undefined)	-9%
CCOC(=O)c1cccc(NC(=O)N2CC=C(c3c[nH]c4ccccc34)CC2)c1	8%
COc1ccc(C(=O)C23CC4CC(C2)CC(C(=O)c2ccc(OC)cc2)(C4)C3)cc1	-19%
